Screens as filed in PubChem BioAssay.
SARS PLpro yeast – blocks SARS-CoV papain-like protease in a yeast assay. S. cerevisiae expressing SARS-CoV PLpro, growth rescue; control for the full effect not named in the record. AID 485353. hit rate 0.19% among 330,000. Potency, µM (highest dose often 32.9 µM), for inactives: at the highest dose activity, positive = growth rescue; also: 0% is about no effect; nearly all actives have a fitted effect of over 55% in size; growth read by luminescence after 48 h
Lassa entry inh – blocks Lassa virus binding to or entry into cells. Potency, µM (highest dose often 37.9 µM), for inactives: top-dose activity change, negative = inhibition, usual class: inhibitors. hit rate 1.2% among 300,000. Lassa virus pseudotype entry inhibition, cell reporter; control for the full effect not named in the record; active means well fitted inhibition curve with a large enough effect; inconclusive means small, poorly fitted or top-dose-only effect, or effect the other way; inactive means flat fitted curve, though single readings scatter; tested in HEK293 cells; also: % is scaled to controls: 0 for no effect and ±100 for the full control effect; nearly all actives have a fitted effect of over 50% in size; luciferase read-out
Cruzain inh noDet – cruzain (T. cruzi) inhibition without detergent. Potency, µM, inactives show max response, negative = inhibition, most hits filed as inhibitors. hit rate 2.3% among 200,000. P25779. purified cruzain, Z-FR-AMC fluorescence, no detergent; active = well fitted curve in the direction sought with a large enough effect; inconclusive = small, poorly fitted or top-dose-only effect, or another doubt; inactive = no such curve, though single readings can be large; an effect the other way counts as inactive or inconclusive;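 also: plate controls were enzyme without inhibitor for no effect and buffer without enzyme for full effect; nearly all actives have a fitted effect of over 40% in size; top concentration of the series not given in the record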
Target sequence (P25779 123-467 limits assumed): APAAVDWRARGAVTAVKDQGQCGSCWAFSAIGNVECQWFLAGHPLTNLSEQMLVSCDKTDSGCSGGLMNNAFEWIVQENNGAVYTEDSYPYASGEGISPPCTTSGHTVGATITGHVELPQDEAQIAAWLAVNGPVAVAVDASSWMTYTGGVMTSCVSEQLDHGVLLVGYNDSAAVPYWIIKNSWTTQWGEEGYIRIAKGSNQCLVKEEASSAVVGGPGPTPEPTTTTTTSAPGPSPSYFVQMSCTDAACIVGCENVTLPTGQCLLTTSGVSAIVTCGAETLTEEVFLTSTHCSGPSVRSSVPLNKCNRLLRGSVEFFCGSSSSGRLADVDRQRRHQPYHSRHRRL
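Detergent-free condition (0.00005% Triton X-100) in acetate buffer pH 5.5 with DTT. 1.5 nM enzyme and compound were pre-mixed 15 min, then 2 uM Z-FR-AMC substrate added; reaction progress from fluorescence change between first and third reads (60 s).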
StopGo reporter – FMDV 2A StopGo reporter, luciferase signal; AID 1159524; hit rate 1.2% among 410,000; human cells with a luciferase reporter of 2A StopGo recoding; control for the full effect not named in the record; Potency, µM (series often up to 57.9 µM), without a hit: at the highest dose signal change, negative = less light; active = well fitted falling curve with a large enough effect; inconclusive = small, poorly fitted or top-dose-only effect; inactive = no such curve, though single readings can be large or run the other way; tested in HEK293T cells; also: % is scaled to controls: 0 for no effect and ±100 for the full control effect; nearly all actives have a fitted effect of over 45% in size; luciferase light after 4 h
RE007 growth inh – less growth of the S. pombe RE007 Vpr strain. AID 651644. hit rate 0.21% among 360,000. S. pombe RE007 Vpr strain, BacTiter-Glo ATP luminescence, 24 h; control for the full effect not named in the record. Potency, µM (highest dose often 92.2 µM), without a hit: at the top dose activity change, negative = less growth; active = well fitted falling curve with a large enough effect; inconclusive = small, poorly fitted or top-dose-only effect; inactive = no such curve, though single readings can be large or run the other way;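 also: % is scaled to controls: 0 for no effect and ±100 for the full control effect; nearly all actives have a fitted effect of over 50% in size; the assay follows cell death caused by Vpr and the record does not say whether a fall means rescue or toxicity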
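Fission yeast RE007 carrying one integrated HIV-1 vpr copy, seeded at OD 0.01 in PMG+AL medium with 23 nL pinned compound. Grown 24 h at 30 degrees; viability read by BacTiter-Glo luminescence after 5 min.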
Cruzain Triton – blocks cruzain activity in presence of Triton detergent | P25779 | purified cruzain, Z-FR-AMC fluorescence, 0.01% Triton | Potency, µM, without a hit: max response, negative = inhibition, hits mostly inhibitors | hit rate 0.43% among 200,000; active = well fitted curve in the direction sought with a large enough effect; inconclusive = small, poorly fitted or top-dose-only effect, or another doubt; inactive = no such curve, though single readings can be large; an effect the other way counts as inactive or inconclusive;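 also: plate controls were neutral wells for no effect and buffer without enzyme for full effect; nearly all actives have a fitted effect of over 40% in size; top concentration of the series not given in the record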
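Purified cruzain (1.5 nM final) was preincubated with compounds for 15 min at room temperature in 100 mM sodium acetate pH 5.5, 5 mM DTT, 0.01% Triton X-100. Reaction started with 2 uM Z-FR-AMC; AMC fluorescence change over 60 s gave activity.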
NS1 function inh – inhibitors of influenza NS1 protein function. S. cerevisiae slowed by influenza A NS1, growth recovery by OD600. Potency, µM (titrated, usually from 46.1 µM), for inactives: top-dose activity, positive = more growth. hit rate 0.4% among 270,000. AID 2326; also: actives are rising curves; nearly all actives have a fitted effect of over 50% in size
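Read-out: OD600 growth recovery of NS1-expressing budding yeast. Cells grown overnight at 30C in -URA glucose medium, washed, resuspended and diluted 1:100 in 2% galactose assay medium, pH 6.0. Same strain lacking NS1 served as positive control.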
Marburg entry inh – inhibitors of Marburg virus binding or cell entry | Marburg virus pseudotyped entry inhibition, cell reporter; control for the full effect not named in the record; about a third of the inactives were read at about 46 µM | Potency, µM (titrated, usually from 37.8 µM), for inactives: at the highest dose activity change, negative = inhibition, hits mostly inhibitors | AID 540276 | hit rate 1.8% among 300,000; active = well fitted inhibition curve with a large enough effect; inconclusive = small, poorly fitted or top-dose-only effect, or effect the other way; inactive = flat fitted curve, though single readings scatter; tested in HEK293 cells; about a fifth of its hits are not listed in these tables; also: % is scaled to controls: 0 for no effect and ±100 for the full control effect; luciferase read-out
* marks the source's active call; other numbers are inactive results; ? = inconclusive; / = not tested or not shown; & = joins results of further samples; [ ] = dose if it differs, or a comment. Unless noted, calls follow the shape of the dose curve; as a rule, active means well fitted rising curve with a large enough effect; inconclusive means small, poorly fitted or top-dose-only effect; inactive means no such curve, though single readings can be large or run the other way. Potency is read from the fitted curve at half-maximal effect.

SMILES	SARS PLpro yeast	Lassa entry inh	Cruzain inh noDet	StopGo reporter	RE007 growth inh	Cruzain Triton	NS1 function inh	Marburg entry inh
COc1ccc(C(=O)OCC(=O)C(C)(C)C)cc1S(=O)(=O)N(C)CCc1cccnc1	0%	-4%	/	4%	10%	/	-1%	9%[46.1 µM]
CCOC(=O)Cn1cnc2scc(-c3ccc(C)c(C)c3)c2c1=O	-10%	?	/	14%	-12%	/	-144%	-6%[46.1 µM]
Cc1cc2oc(C(=O)NC3CCS(=O)(=O)C3)cc(=O)c2cc1C (configuration not stated)	10%	/	/	?	16%	/	-2%	/
O=C(Nc1cccc2oc(=O)ccc12)c1ccc([N+](=O)[O-])cc1[N+](=O)[O-]	14%	12%	-12%	0%	13%	-5.0%	6%	1%
COc1ccc(CCNC(=O)C2(c3cccs3)CCOCC2)cc1	/	-1%[46.1 µM]	4%	-15%	/	3.8%	/	/
Cc1ccc(-c2nnc(-c3ccc(NC(=O)Cc4cccs4)cc3)o2)cc1	-2%	?	13%	44%[activator]	3%	5.3%	-11%	?
CCOc1cccc2cc(-c3csc(NC(=O)CCC(=O)NCCN4CCCCC4C)n3)c(=O)oc12 (configuration not stated)	-11%	?	/	81%[activator]	-18%	/	/	?
Cc1ccc2c(c1)CC1(CN2C)C(=O)NC(=O)N(c2cc(C)ccc2C)C1=O (configuration not stated)	-7%	0%	0%	-16%	-3%	3.2%	17%	7%
Cc1ccc(Cn2cc(C(=O)c3ccc(F)cc3)c(=O)c3cc4c(cc32)OCO4)cc1	/	?	-1%	-7%	/	-2.3%	/	-10%[46.1 µM]
CCOC(=O)C(C)Sc1ccc2nnc(CCNS(=O)(=O)c3ccc(C)cc3)n2n1 (configuration not stated)	-2%	-8%[46.1 µM]	-12%	5%&-14%	-13%	-1.4%	/	/
O=C(CCN1CCN(c2ccccn2)CC1)Nc1ccc(F)cc1	-2%	0%	-2%	-12%	7%	4.3%	5%	-13%[46.1 µM]
Cc1ccc(OCc2ccc(C(=O)Nc3c(C)nn(Cc4c(F)c(F)c(F)c(F)c4F)c3C)o2)c([N+](=O)[O-])c1	-3%	?	1%	?	1%	-1.1%	-11%	16µM*
CCOC(=O)Nc1ccc2c(c1)N(C(=O)CCN(C)C)c1ccccc1S2	-4%	-4%	-11%	?	8%	-1.8%	-35%	?
Cc1nn(C)c(C)c1C(C)NC(=O)c1cc(COc2ccc(F)c(F)c2)on1 (configuration not stated)	29%	/	/	-1%	1%	/	3%	/
O=C(CN1CCCCC1)c1ccc(F)cc1	0%	/	/	4%	11%	/	-4%	/
CCOC(=O)c1noc2ncn(CC(=O)O)c(=O)c12	/	23%[46.1 µM]	-3%	34%[activator]	/	0.5%	/	-13%[46.1 µM]
CCC1Oc2ccc(C)cc2N(CC(=O)N2CCN(c3ccccc3OC)CC2)C1=O (configuration not stated)	/	10%[46.1 µM]	-4%	-19%	/	1.2%	/	/
Cn1ncc(C(=O)Nc2ccc(Cl)cc2)c1C(F)(F)F	-2%	14%	/	16%	-4%	/	-4%	1%[46.1 µM]
C=C(C)C(=O)OCC(=O)NCc1ccccc1	-3%	-10%	/	36%[activator]	-6%	/	/	12%[46.1 µM]
COC(=O)CN1C(=O)C(C)(C)c2cc(S(=O)(=O)Nc3ccc(Br)cc3F)ccc21	/	?	?	31%[activator]	/	-3.8%	/	/
COc1ccccc1CCNC(=O)CSc1ccc(-c2cccs2)nn1	-5%	-4%	/	-17%	14%	/	/	1%[46.1 µM]
Cc1ccc(C)c(N2CCN(S(=O)(=O)c3csc(C(N)=O)c3)CC2)c1	-5%	-9%[46.1 µM]	6%	?	4%	-7.6%	6%	/
CC1CCN(c2cc(C#N)c(C#N)cc2[N+](=O)[O-])CC1	/	-6%	-5%	-22%	0%	2.3%	-6%	-19%
O=P(O)(CCc1ccccn1)CN1CCCCC1	0%	?	7%	/	0%	1.7%	0%	12%
Cc1cc(Br)ccc1NC(=O)c1sc2ncnc(N3CCN(c4ccccn4)CC3)c2c1C	-6%	?	/	-29%	-9%	/	4%	?

Part of the list above in order of heavy-atom count, falling.
SMILES	SARS PLpro yeast	Lassa entry inh	Cruzain inh noDet	StopGo reporter	RE007 growth inh	Cruzain Triton	NS1 function inh	Marburg entry inh
Cc1nn(C)c(C)c1C(C)NC(=O)c1cc(COc2ccc(F)c(F)c2)on1 (configuration not stated)	29%	/	/	-1%	1%	/	3%	/
CCOC(=O)Nc1ccc2c(c1)N(C(=O)CCN(C)C)c1ccccc1S2	-4%	-4%	-11%	?	8%	-1.8%	-35%	?
COc1ccccc1CCNC(=O)CSc1ccc(-c2cccs2)nn1	-5%	-4%	/	-17%	14%	/	/	1%[46.1 µM]
CCOC(=O)c1noc2ncn(CC(=O)O)c(=O)c12	/	23%[46.1 µM]	-3%	34%[activator]	/	0.5%	/	-13%[46.1 µM]

Continuation:
SMILES	SARS PLpro yeast	Lassa entry inh	Cruzain inh noDet	StopGo reporter	RE007 growth inh	Cruzain Triton	NS1 function inh	Marburg entry inh
O=C(CCC(F)(F)F)N1CCC(CO)(CCc2ccccc2)CC1	2%	/	/	31%[activator]	4%	/	-10%	/
Cc1nn(-c2cc(C)c3ccccc3n2)c2c1CCC2	0%	6%	?	15%	11%	0.9%	-34%	-4%&6%
CCOC(=O)c1ccc(NC(=S)N2CCN(CCN=CC3=C(O)CC(c4ccccc4)CC3=O)CC2)cc1 (configuration not stated)	2%	/	/	-19%	-5%	/	2%	/
COc1cc2ccccc2cc1C(=O)Nc1ccc2oc(-c3cc(Br)ccc3Cl)nc2c1	/	12%[46.1 µM]	0%	-9%	/	-0.7%	/	/
COCCn1c(N)c(N(Cc2ccccc2)C(=O)c2ccc(-c3ccc(Cl)cc3)o2)c(=O)[nH]c1=O	/	-21%	/	0%	-5%	/	/	1%
CC(C)(C)Sc1ccc(/C=N/O)cc1[N+](=O)[O-]	-3%	-16%	/	-18%	-8%	/	-9%	?
O=C(NCc1ccc(Cl)cc1)C1C2C=CC3(CN(Cc4cccnc4)C(=O)C13)O2 (configuration not stated)	-2%	15%[14.3 µM]	-6%	19%	-7%	3.8%	3%	-5%
COCCNC(=O)c1ccc2c(=O)n(CCOC)c(=O)[nH]c2c1	-6%	21%	7%	14%	25%	0.7%	6%	26%
COc1ccc(C(=O)NCc2c(C)oc(C)c2C(=O)O)cc1	-1%	?	/	-10%	5%	/	2%	12%
O=C(O)C1CC(=O)N(C2CCCCC2)C1c1ccccc1 (configuration not stated)	7%	?	-8%	5%	16%	-3.7%	5%	6%
CCN(Cc1ccccc1)S(=O)(=O)c1cc2[nH]c(=O)c(=O)[nH]c2cc1C	0%	/	/	-15%	11%	/	3%	/
Cn1c(=O)n(C)c2cc(S(=O)(=O)O)ccc21	2%	0%	-7%	-19%	0%	2.6%	-7%	2%
Cc1nc(SCC(=O)c2ccccc2)c(C#N)c(-c2ccco2)c1C(=O)NCc1ccco1	?	-23%	-21%	?	-9%	-6.5%	27%	?
Cc1ccc(NC(=O)COC(=O)CNC(=O)c2ccc(Cl)cc2Cl)cc1S(=O)(=O)N1CCOCC1	-2%	21%	/	-7%	-19%	/	/	0%[46.1 µM]
CCOC(=O)c1c(-c2ccccc2)csc1NC(=O)CSc1ccccc1	-7%	?	-22%	-2%	17%	-6.8%	-10%	?
COC(=O)c1cc(NC(=O)c2oc(=O)c3ccccc3c2-c2ccccc2)cc(C(=O)OC)c1	/	5%[46.1 µM]	-7%	-8%	/	-0.8%	/	0%[46.1 µM]
Cc1cc2n(n1)C(c1ccc3c(c1)OCO3)Nc1ccccc1-2 (configuration not stated)	14%	1%	3%	9%	-22%	-11%	-28%	-2%
CCOc1ccc2[nH]c(=O)c(CN(CC3CCCN3CC)C(=O)NCc3ccccc3)cc2c1 (configuration not stated)	0%	7%	6%	-4%	-15%	-1.0%	3%	-1%&-1%
O=C1CC(c2ccccc2C(F)(F)F)c2c(c3ccccc3[nH]c2=O)O1 (configuration not stated)	/	11%[46.1 µM]	0%	0%	/	-1.6%	/	15%[46.1 µM]
CCc1ccccc1NC(=O)CNC(=O)CNC(=O)C1CCCCC1	-1%	10%	/	-13%	-1%	/	/	8%
CC(=O)c1ccc(NC(=O)CSc2nnc3c(n2)[nH]c2ccccc23)cc1	/	-7%[46.1 µM]	?	?	/	-12%	/	25%[46.1 µM]
CCOc1cc(Cl)c(S(=O)(=O)NCc2cccnc2)cc1Cl	0%	-12%	/	-5%	3%	/	2%	0%
CN(CC(=O)Nc1ccc(S(=O)(=O)N2CCCC2)cc1)Cc1cccc(Cl)c1Cl	-27%	?	1%	-27%	17%	-1.8%	-20%	?

Quoted from above, 6 compounds:
SMILES	SARS PLpro yeast	Lassa entry inh	Cruzain inh noDet	StopGo reporter	RE007 growth inh	Cruzain Triton	NS1 function inh	Marburg entry inh
CCOc1ccc2[nH]c(=O)c(CN(CC3CCCN3CC)C(=O)NCc3ccccc3)cc2c1 (configuration not stated)	0%	7%	6%	-4%	-15%	-1.0%	3%	-1%&-1%
O=C1CC(c2ccccc2C(F)(F)F)c2c(c3ccccc3[nH]c2=O)O1 (configuration not stated)	/	11%[46.1 µM]	0%	0%	/	-1.6%	/	15%[46.1 µM]
CCc1ccccc1NC(=O)CNC(=O)CNC(=O)C1CCCCC1	-1%	10%	/	-13%	-1%	/	/	8%
CC(=O)c1ccc(NC(=O)CSc2nnc3c(n2)[nH]c2ccccc23)cc1	/	-7%[46.1 µM]	?	?	/	-12%	/	25%[46.1 µM]
CCOc1cc(Cl)c(S(=O)(=O)NCc2cccnc2)cc1Cl	0%	-12%	/	-5%	3%	/	2%	0%
CN(CC(=O)Nc1ccc(S(=O)(=O)N2CCCC2)cc1)Cc1cccc(Cl)c1Cl	-27%	?	1%	-27%	17%	-1.8%	-20%	?

An unsorted share of the library (roughly 4.5% active in at least one column).
